# High-throughput results from PubChem.
# Vaccinia mCherry = inhibitors of vaccinia virus infection (mCherry reporter signal); hit rate 0.63% among 310,000; Vaccinia virus mCherry reporter infection, fluorescence; about a quarter of the inactives have no number; Potency, µM (doses to about 36.5 µM), for the others: at the top dose activity change, negative = inhibition, most hits filed as inhibitors; active = well fitted inhibition curve with a large enough effect; inconclusive = small, poorly fitted or top-dose-only effect; inactive = no such curve, though single readings can be large or run the other way; tested in A549 cells; note: nearly all actives have a fitted effect of over 35% in size; inactives centre near -10
# Vaccinia Venus = vaccinia inhibition (Venus reporter); hit rate 0.46% among 330,000; Vaccinia virus Venus reporter expression, fluorescence; Potency, µM (top dose mostly 36.5 µM), without a hit: at the highest dose activity change, negative = inhibition, most hits filed as inhibitors; active means well fitted inhibition curve with a large enough effect; inconclusive means small, poorly fitted or top-dose-only effect; inactive means no such curve, though single readings can be large or run the other way; tested in A549 cells; note: nearly all actives have a fitted effect of over 30% in size; inactives centre near -10
# An asterisk follows results filed as active; i = inactive; ? = inconclusive; . = no result given; & = joins results of further samples; [ ] = another dose, or the depositor's remark. % is set by controls: 0 for no effect and ±100 for the full control effect; potency is the fitted concentration of half-maximal effect.
SMILES,Vaccinia mCherry,Vaccinia Venus
O=C(Nc1ccc(-n2cccn2)cc1)C1CCN(Cc2ccsc2)CC1,?,?
COc1ccccc1NC(=O)CN1CCN(c2ccccn2)CC1,i,-11%
CCCSc1nnc(-c2c[nH]c3ccccc23)n1CC,-11%,-23%
O=C(NCc1ccccc1F)c1cccc(NC(=O)N2CCSc3ncccc32)c1,-6%,-1%
CCCCN(C(=O)c1ccc(N2C(=O)c3ccccc3C2=O)cc1)c1c(N)n(CC(C)C)c(=O)[nH]c1=O,-1%,-11%
Cc1ccc(C(=O)Nc2nn(C)c3cccc(F)c23)cc1,-16%,-16%
CCOc1cccc(-c2csc(C3COc4ccccc4O3)n2)c1 (stereo not given),i,-12%
Cc1ccc(S(=O)(=O)OCC(=O)Nc2ccc(C(=O)O)c(O)c2)cc1,i,-3%
COc1ccc(-c2cc3c(c4c2ccn4C)C2CCC3C2)cn1 (stereo not given),33%[activator],-5%
C=CCSc1nnc(-c2ccccc2NC(C)=O)c(=O)[nH]1,-12%,-4%
COc1ccc(S(=O)(=O)Cc2ccc(C(=O)NC3CCC(C)CC3)o2)cc1 (stereo not given),i,-12%
CC(=O)Nc1ccc(S(=O)(=O)Nc2ccccn2)cc1,-12%,-9%
COc1ccccc1CCNC(=O)C(=O)NCC1OCCN1S(=O)(=O)c1ccc2c(c1)OCCO2 (stereo not given),i,-14%
Cc1ccc(S(=O)(=O)N2CCN(C(=O)CSc3nnnn3C)C2)cc1,i,-8%
COc1ccccc1-c1cc(N)n[nH]1,-13%,-8%
COc1ccc(/C=N/c2oc(-c3ccccc3)cc2C#N)cc1OC,.,4%
O=C(N/C(=C/c1ccc(Br)cc1)C(=O)N1CCOCC1)c1ccc(Br)o1,i,-7%
CCc1ccc(S(=O)(=O)c2nnn3c2nc(Nc2cc(OC)cc(OC)c2)c2cc(Cl)ccc23)cc1,-12%,-9%
CCOC(=O)CNc1cccc(C(F)(F)F)c1,i,-15%
Cc1ccc(C)c(N2CCN(S(=O)(=O)c3ccc4[nH]c5c(c4c3)CCCC5)CC2)c1,3%,12%
Cc1nc(/N=C(\N)NC(=O)N2c3ccccc3Sc3ccccc32)nc2ccccc12,i,-10%
CSc1ccccc1NC(=O)C1=CC(c2ccc(C)cc2)=NS(=O)(=O)N1C,-28%,?
Cc1ccccc1NC(=S)NCc1ccc(F)cc1,-15%,-20%
O=C(c1ccco1)n1nc(-c2ccc(Cl)cc2)nc1NCc1ccc(F)cc1,-15%,-1%
O=C1NC[C@H](CCCCN2CCN(CCC3CCCCC3)C(=O)C2=O)N(CC2CCCCC2)C1=O,i,-3%
COc1ccccc1OCC(=O)NCC(C)NC(=O)COc1ccccc1OC (stereo not given),i,-8%
O=C(CSc1nnc(CCc2nc3ccccc3[nH]2)n1-c1ccccc1)NCc1ccccc1,.,-15%
COCCN(C/C=C/c1ccccc1)C/C=C/c1ccccc1,-12%,-7%
CC(=O)Nc1ccc(S(=O)(=O)N2CCC(N3CCN(Cc4ccc(C)cc4)C(=O)C3=O)CC2)cc1,-4%,11%
COc1ccccc1C(=O)Nc1ncc2c(n1)CC(c1ccco1)CC2=O (stereo not given),i,-10%

# Structures shown so far that contain an aryl methoxy group (9):
SMILES,Vaccinia mCherry,Vaccinia Venus
COc1ccccc1NC(=O)CN1CCN(c2ccccn2)CC1,i,-11%
COc1ccc(-c2cc3c(c4c2ccn4C)C2CCC3C2)cn1 (stereo not given),33%[activator],-5%
COc1ccc(S(=O)(=O)Cc2ccc(C(=O)NC3CCC(C)CC3)o2)cc1 (stereo not given),i,-12%
COc1ccccc1CCNC(=O)C(=O)NCC1OCCN1S(=O)(=O)c1ccc2c(c1)OCCO2 (stereo not given),i,-14%
COc1ccccc1-c1cc(N)n[nH]1,-13%,-8%
COc1ccc(/C=N/c2oc(-c3ccccc3)cc2C#N)cc1OC,.,4%
CCc1ccc(S(=O)(=O)c2nnn3c2nc(Nc2cc(OC)cc(OC)c2)c2cc(Cl)ccc23)cc1,-12%,-9%
COc1ccccc1OCC(=O)NCC(C)NC(=O)COc1ccccc1OC (stereo not given),i,-8%
COc1ccccc1C(=O)Nc1ncc2c(n1)CC(c1ccco1)CC2=O (stereo not given),i,-10%

# The list goes on:
SMILES,Vaccinia mCherry,Vaccinia Venus
Cc1ccc(S(=O)(=O)N2c3ccccc3CC2C)cc1 (stereo not given),-29%,?
COc1ccc(-n2nnnc2SCC(=O)N2CCCc3ccccc32)cc1OC,-15%,-6%
CC(=O)N(Cc1cccnc1)c1nc2c(F)cc(F)cc2s1,-19%,-17%
CC(=O)Nc1nc(CC(=O)c2ccccc2)cs1,4%,7%
CN(C)c1ccc(C(=O)c2ccccc2C(=O)O)c(O)c1,-8%,-4%
O=C(Nc1nc2n(n1)C(c1ccccc1)C=C(c1ccccc1)N2)c1ccccc1 (stereo not given),-27%,-12%
Brc1ccc(CSc2ncn[nH]2)cc1,-22%,-7%
O=C(CN(c1ccccn1)S(=O)(=O)c1ccccc1)Nc1ccccc1,-5%,-19%
CC1CCCCN1CCCNc1ccc(C(CC(N)=O)NC(=O)Cc2ccc(Cl)cc2)cc1[N+](=O)[O-] (stereo not given),-24%,-9%
C=C1CCC[C@]2(C)C[C@H]3OC(=O)C(CNC(C)CCCC(C)C)[C@H]3CC12 (stereo not given in full),?,7.1µM*
NS(=O)(=O)c1cc2c(cc1Cl)NC(C1CC3C=CC1C3)NS2(=O)=O (stereo not given),-1%,-7%
Cc1cc(-n2c(SCC(=O)NCc3cccs3)nc3n[nH]c(C)c3c2=N)ccc1Cl,?,?
COc1ccc(Br)cc1C(=O)O,i,-4%
CCNC(=O)c1ccccc1NC(=O)c1cccc(S(=O)(=O)N2CCC(C)CC2)c1,.,?
CCCCCCCCNCCS(=O)(=O)NC1CCCCC1,-6%,-13%
Cc1cccc(N2CCN(c3ccc(N4C(=O)CCCC4=O)cc3[N+](=O)[O-])CC2C)c1 (stereo not given),-9%,-8%
COc1ccc(CNc2nc3ccccc3n2CCN2CCOCC2)cc1,-13%,?
O=C(Nc1ccc(-c2nc3ccccc3[nH]2)cc1)c1ccc(N2C(=O)CCC2=O)cc1,-5%,-7%
CCN(CC)CCCNC(=O)Cn1cc2c(n1)CCC(C)C2 (stereo not given),-2%,-4%
O=C(Nc1cccc(CCc2ccccn2)c1)c1cc(F)c(F)cc1Cl,-13%,-3%
Cc1ccc(S(=O)(=O)NCC(=O)N(CCc2ccccc2)CC(=O)NCc2ccco2)cc1,-5%,-4%
CN1CCN(C(CNC(=O)C(=O)Nc2cccc(Cl)c2)c2ccc3c(c2)OCO3)CC1 (stereo not given),-8%[7.34 µM],-5%[7.34 µM]
Cc1ccc(C(=O)CNc2cc(C)ccc2C)cc1,-18%,0%
CC(=O)NC1=NN(C(C)=O)C(C)(c2ccc(Br)cc2)S1 (stereo not given),-3%,-6%
CN1C(=O)C(C)(C)c2cc(S(=O)(=O)N3CCC(C(=O)Nc4ccc(Cl)cc4)CC3)ccc21,-10%,-14%
Cc1cc(N2CCOCC2)nc2ccc(NC(=S)NCCC(C)C)cc12,?,-28%
COc1cccc(OC)c1C(=O)Nc1ccc(S(=O)(=O)Nc2cc(C)nc(C)n2)cc1,-9%,-7%
COCCN(C(=O)COC(=O)c1cccc2ccccc12)c1c(N)n(Cc2ccccc2)c(=O)[nH]c1=O,-9%,-16%
CN(Cc1ccccc1)C(=O)CCSc1nc(-c2ccc3c(c2)OCO3)cc(C(F)(F)F)n1,-29%,-13%
COc1ccc(C2=NCCc3cc(OC)c(OC)cc32)cc1,-9%,-8%
CC(C)(C)c1csc(NC(=O)CSC2=NCCS2)n1,i,15%
CCOC(=O)C1=CCN(S(=O)(=O)c2ccc(F)cc2)C1c1cccc(C)c1 (stereo not given),18%,8%
CCN(C(=O)Cn1c(C(=O)OC)cc2oc3ccccc3c21)c1cccc(C)c1,-14%,3%
COC(=O)C(c1ccccc1Cl)N1CCc2sccc2C1 (stereo not given),-10%,?
CCS(=O)(=O)N1CCN(c2ccc([N+](=O)[O-])c(N3CCOCC3)c2)CC1,-10%,-12%
O=C(c1ccc2oc(CCCc3ccccc3)nc2c1)N1CCCCC1CO (stereo not given),i,-15%
Cc1cccc(C(=O)Nc2ccccc2SCC2CSc3nc4ccccc4c(=O)n32)c1 (stereo not given),.,-15%
CCOc1ccc(C(=O)NCc2ccc3c(c2)CCN3C(=O)c2ccccc2)cc1,i,-8%
COC(=O)C1=C(C)NC(=O)C1(Nc1nccs1)C(F)(F)F (stereo not given),.,-30%
O=C(NC1CC2CCCC(C1)N2C(=S)Nc1ccccc1)C1CC1 (stereo not given),i,0%
CNc1cccc(-c2cc(OC)ccc2OC)n1,-15%,-10%
O=C(Cn1nnc(-c2ccccc2)n1)NCc1ccc2c(c1)OCO2,.,-8%
CC1CCCC(NC(=O)CNCc2ccccc2F)C1C (stereo not given),-17%,-3%
Clc1ccc(Cc2nnc(-c3ccccc3Br)o2)cc1,-21%,-8%
CNC(=O)NC(=O)C(C)OC(=O)c1ccc(Cl)c(S(=O)(=O)Nc2ccc(F)cc2)c1 (stereo not given),i,-9%
CCOC(=O)N1CCC(N2Cc3cccc(C(=O)NCc4ccc(C)cc4)c3C2=O)CC1,i,-8%
CC(C)c1cnc2c(c1SCC(=O)O)c(=O)n(C)c(=O)n2C,-5%,-5%
O=C(O)c1cn[nH]c1-c1cccc([N+](=O)[O-])c1,i,-6%
COc1ccc(/C=c2\sc3nc(=O)c(C)nn3c2=O)c(OC)c1,i,-4%
Cc1ccc(NC(=O)C2OCCc3ccccc32)cc1C (stereo not given),-5%,-8%
Cc1ccccc1-n1c(C)nnc1SCC(=O)NCC1CCCO1 (stereo not given),i,-11%
C=CCC(CC=C)(NC(=O)c1ccccc1C)c1ccccc1,i,-18%
COc1cccc(CNc2nc3cc(-c4ccc(OC)cc4C)sc3c(=O)n2C)c1,-22%,-14%
CCOc1cccc(NC(=O)CC#N)c1,-11%,-8%
COc1ccc(CNC(=O)c2cc(C)nn2-c2ccccc2)cc1,-7%,-9%
Cc1cc2ccccc2n1CCNC(=O)c1ccc(Br)o1,2%,41%[activator]
Cc1cccc(/C=N\NC(=O)c2ccccc2-n2cccc2)c1,-1%,0%
Nc1cc(N)nc(SCC(=O)Nc2ccccc2N2CCOCC2)n1,i,-4%
COC(=O)Cn1c(C(=O)N2CCCC2)cc2c1C[C@H]1CN(C(=O)c3ccccc3)[C@@](Cc3ccc(OC)cc3)(C(=O)OC)[C@@H]21,-4%,-4%
CCC1c2ccc(C)n2CCN1C(=O)Nc1ccccc1C(=O)OC (stereo not given),.,-8%
# Next section:
SMILES,Vaccinia mCherry,Vaccinia Venus
C[C@@H]1CN([C@@H](C)CO)C(=O)CCCn2nncc2CO[C@@H]1CN(C)C(=O)Nc1ccccc1,i,-6%
CN1CCN(C(=O)C2CC(=O)N(c3ccc(Cl)cc3)C2)CC1 (stereo not given),0%,7%
Cc1ccc(NC(=O)[C@@]2(CC(=O)O)CC(/C=C/c3ccccc3)=NO2)c(C)c1,-11%,-10%
CCc1ccc(C2C(C(=O)Nc3ccccc3C)=C(C)Nc3nc(SCc4cccc(OC)c4)nn32)cc1 (stereo not given),-3%,2%
COc1ccc(NC(=O)CSc2nc3ccccc3[nH]2)cc1,-2%,2%
O=C(O)CN(C1CCCCC1)S(=O)(=O)c1ccc(F)cc1,-2%,-16%
CCCCCN(C(=O)CCC(=O)OCc1cccc(Br)c1)c1c(N)n(CCCC)c(=O)[nH]c1=O,-16%,-26%
Cc1c(-n2c(-c3ccccc3Cl)n[nH]c2=S)c(=O)n(-c2ccccc2)n1C,-4%,?
C1N2CN3CN1CN(C2)C3,i,-10%&-28%
COC(=O)NC(NS(=O)(=O)c1ccccc1)(C(=O)OC)C(F)(F)F (stereo not given),-14%[7.34 µM],-2%[7.34 µM]
Cc1ccccc1C(=O)N1CCC(C(=O)Nc2ccc3c(c2)OCCO3)CC1,-11%,-8%
CC(=O)Nc1cccc(NC(=O)CSc2nccn2Cc2ccc(F)cc2)c1,-16%,-13%
COc1ccc(NC(=O)c2cc(C3CCCCN3S(=O)(=O)c3cccs3)on2)c(C)c1 (stereo not given),-5%,-5%
CCOC(=O)CCCCC(=O)c1[nH]c(=O)[nH]c1CSc1nc(-c2ccccc2)c(C#N)c(=O)[nH]1,3%,0%
Cc1nc(N)nc(N)c1-c1ccc(Cl)c(Cl)c1,1µM*,1µM*

# One compound at a time, as listed above. Order of values: Vaccinia mCherry, Vaccinia Venus
# Listed for CN1C(=O)C(C)(C)c2cc(S(=O)(=O)N3CCC(C(=O)Nc4ccc(Cl)cc4)CC3)ccc21 → -10%, -14%
# Listed for Brc1ccc(CSc2ncn[nH]2)cc1 → -22%, -7%
# Listed for CC(=O)NC1=NN(C(C)=O)C(C)(c2ccc(Br)cc2)S1 (stereo not given) → -3%, -6%
# Listed for CN(Cc1ccccc1)C(=O)CCSc1nc(-c2ccc3c(c2)OCO3)cc(C(F)(F)F)n1 → -29%, -13%

# (listing goes on)
SMILES,Vaccinia mCherry,Vaccinia Venus
CCCc1nnc(SCC(=O)Nc2ccc(OC)cc2)o1,-27%,-1%
COC(=O)c1cc2ccc(OC)cc2c2cc(OC)c(OC)cc12,-26%,?
O=C(Nc1cccnc1Cl)c1cc([N+](=O)[O-])ccc1Cl,-19%,-8%
COc1ccc(NC(=O)C2CCC(C)(C(=O)O)C2(C)C)cc1 (stereo not given),.,-3%
CCOC(=O)C1/C(=N\O)CC(C)(O)C(C(=O)OCC)C1c1ccc(OC)c(OC)c1 (stereo not given),-11%,-2%
O=S1(=O)CCO[C@H]2Cc3ccccc3[C@H]2N1Cc1cccc(F)c1,i,-1%&-9%
CCOCCCNC(=O)c1ccccc1SCC,-25%,-25%
COc1ccc(CNc2ncnc3cc(OC)c(OC)cc23)cc1OC,?,-28%

# The order is random. About 0.86% of those tested had a hit in this group.
